Biofilm kill mix = clotrimazole potentiators killing C. albicans biofilm, primary screen, 4-compound mixtures | inhibition, % at 7.6 µM | C. albicans biofilm persisters + clotrimazole, fluorescence viability; primary screen in compound mixtures of four per well | hit rate 0.02% among 120,000;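 active = inhibition above 30.3% in the primary screen of four-compound pools, then above 30% when the compound was retested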;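 also: compounds exposed to preformed 24 h biofilms for 48 h; the number belongs to the whole pool; some results filed as inactive read as strong as hits; inactives centre near 12; 0% = biofilm with clotrimazole alone and 100% = kill control; retested singly at about 60 µM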
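Incubation: 24 h biofilm formation, then 48 h compound exposure, 37 °C | Material: C. albicans biofilms | Buffer or medium: RPMI/MOPS medium, pH 7.0 | Measured by: 2-h Alamar Blue fluorescence, 535/590 nm excitation/emission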
An asterisk follows results filed as active.

A first look, 6 compounds:
SMILES	Biofilm kill mix
CCCCCn1c(=O)c(-c2nc3ccccc3[nH]2)c(O)c2ccccc21	4.7
Cc1cc(C)c(O)c(-c2cc(C(=O)Nc3c(C)n(C)n(-c4ccccc4)c3=O)[nH]n2)c1	19.9
COc1cccc(CN2CCN(Cc3ccc4c(c3)OCCO4)CC2CCO)c1 (stereo not given)	-5.6
O=C(CCc1nnc(Cc2c[nH]c3ccccc23)o1)NC1CCCC1	-1.6
C[C@H](NC(=O)c1nc[nH]c1C(=O)N[C@H](C)c1ccccc1)C(=O)OCc1ccccc1	18.9
CC(=O)Nc1ccc(N=Cc2c(O)c(C(=O)Nc3ccccc3)cc3ccccc23)cc1	9.7

All compounds of this part, from the start:
SMILES	Biofilm kill mix
CCCCCn1c(=O)c(-c2nc3ccccc3[nH]2)c(O)c2ccccc21	4.7
Cc1cc(C)c(O)c(-c2cc(C(=O)Nc3c(C)n(C)n(-c4ccccc4)c3=O)[nH]n2)c1	19.9
COc1cccc(CN2CCN(Cc3ccc4c(c3)OCCO4)CC2CCO)c1 (stereo not given)	-5.6
O=C(CCc1nnc(Cc2c[nH]c3ccccc23)o1)NC1CCCC1	-1.6
C[C@H](NC(=O)c1nc[nH]c1C(=O)N[C@H](C)c1ccccc1)C(=O)OCc1ccccc1	18.9
CC(=O)Nc1ccc(N=Cc2c(O)c(C(=O)Nc3ccccc3)cc3ccccc23)cc1	9.7
CCOc1ccc(NC(=O)CCC(=O)NNC(=O)c2ccco2)cc1	14.2
O=C(NCCCn1ccnc1)c1cc2ccccc2oc1=O	11.3
CCOc1ccc(-n2c(O)c(/C=N/Nc3nc(C)cc(C)n3)c3ccccc3c2=O)cc1	10.0
CC(NC(=S)Nc1ccc(Cl)cc1)C(c1ccccc1)N1CCOCC1 (stereo not given)	18.9
COCCn1c(SCC(=O)NCc2ccc3c(c2)OCO3)nc2ccccc2c1=O	6.3
Clc1nn2cnnc2c2ccccc12	-0.5
FC(F)(F)c1cc(Oc2ccccc2)ncc1-c1nnc(-c2ccccc2Cl)o1	16.2
O=c1c(-c2ccc(O)cc2)coc2cc(OC3OC(CO)C(O)C(O)C3O)ccc12 (stereo not given)	13.7
COc1ccc(N2CCN(C(C)C(=O)N3CC(C)OC(C)C3)CC2)cc1 (stereo not given)	5.8
Cc1ccc(CS(=O)(=O)c2nc3c(c(N(C)C)n2)CCCC3)cc1	14.9
CC(OC(=O)c1ccc([N+](=O)[O-])s1)C(=O)Nc1ncc(Cl)cc1Cl (stereo not given)	0.3
Cc1ccc(C(=O)Nc2nc(-c3ccc([N+](=O)[O-])cc3)cs2)o1	4.0
Cc1cccc2[nH]c3c(N4CC=C(c5ccc(F)cc5)CC4)ncnc3c12	14.3
CC(=O)OC1OCCOC1NC(=S)Nc1cccc(C(F)(F)F)c1 (stereo not given)	-29.4
COc1ccccc1Nc1nc2cc(C)ccc2cc1C#N	13.7
Cc1nn(C)c(C(=O)NCc2ccc(Cl)cc2)c1Cl	9.0
Cc1nn(C)cc1C(C(=O)NC1CCCCC1)N(Cc1ccccc1Cl)C(=O)c1cnccn1 (stereo not given)	20.2
COc1ccc(C(=O)C2CCCN(Cc3cccn3-c3nccs3)C2)cc1OC (stereo not given)	25.9
CCC1CCCCN1C(=O)CSc1nc(N)cc(N)n1 (stereo not given)	6.1
Fc1ccc(C2=Nc3cccc4cccc(c34)N2)cc1	21.9
CC(=O)c1c(C)[nH]c(C(=O)Nc2ccc(C)c(S(=O)(=O)N(C)C)c2)c1C	14.7
Cc1ccc(NC(=S)N(CCN(C)C)C(C)c2cccnc2)c(C)c1 (stereo not given)	12.2
Cn1c(=O)c2c(nc(CN3CCCCC3)n2CCc2ccccc2)n(C)c1=O	4.6
COC(=O)c1c(NC(=O)CN2CCN(S(=O)(=O)c3ccccc3[N+](=O)[O-])CC2)sc2c1CCC(C)C2 (stereo not given)	6.2
Cc1cccc(N=CC=C2OC(C)(C)C(C)(C)O2)c1	15.4
COc1cc(OC)c(C2=NOC(C(=O)N3CCN(C(=O)c4ccco4)CC3)C2)cc1Cl (stereo not given)	13.1
CCOC(=O)c1c(-c2ccccc2)csc1NC(=O)/C(C#N)=C/c1ccc(OC)c(OC)c1	17.6
O=[N+]([O-])c1cccc(-c2ccc(/C=N/n3c(-c4ccccc4)n[nH]c3=S)o2)c1	11.4
COc1ccc(-c2ccc3nnc(SCC(N)=O)n3n2)cc1	8.6
O=C(CNC(=O)c1ccccc1)NCCO	13.9
O=C(N/N=C/c1ccc(-c2ccc(Br)cc2)o1)c1ccc2c(c1)OCO2	2.4
CC(C)(CN1CCN(C(c2ccccc2)c2ccccc2)CC1)NS(=O)(=O)c1ccccc1	24.8
Cc1ccc(S(=O)(=O)N(C)C)cc1-n1c(SCC(=O)Nc2ccc(F)cc2Cl)nc2ccccc2c1=O	6.4
COc1cccc(/C=N/N2CCN(C3c4ccccc4-c4ccccc43)CC2)c1O	16.5
CN(C)S(=O)(=O)N(CC(=O)Nc1ccccc1)c1ccccc1	13.3
O=C(CC1NCCNC1=O)Nc1cc(Cl)cc(Cl)c1 (stereo not given)	13.0
CCOC(=O)CCCC(=O)N1CCOCCOCCOCC1	10.3
CCOC(=O)C1CCN(S(=O)(=O)c2ccc(Cl)nc2)CC1	13.8
CC(C)(C)N(Cc1cc2ccccc2[nH]c1=O)C(=O)C1CCCCC1	5.6
CCN(CC)C(=O)CSc1nc2cc3c(cc2c(=O)n1CCCC(=O)NCc1ccc(OC)cc1)OCO3	17.8
Cc1ccc(CN2CCN(Cc3cccc(C)n3)CC2CCO)cc1 (stereo not given)	14.8
O=C(Nc1cc(S(=O)(=O)N2CCCCC2)ccc1O)c1ccccc1NS(=O)(=O)c1ccc(F)cc1	17.1
COc1n[nH]c(C(=O)Nc2cc(Cl)ccc2Cl)c1[N+](=O)[O-]	24.1
O=C(Nc1c(-c2cccs2)nc2ccccn12)c1ccc2ccccc2c1	2.8
CNCc1ccccc1Sc1cccc2ccccc12	12.9
COc1ccccc1NC(=O)C(=O)NCc1ccncc1	18.5
O=C(COC(=O)CCc1ccc(S(=O)(=O)N2CCCCC2)cc1)Nc1cccc2ccccc12	15.8
O=C(N/N=C\c1cccnc1)C1c2ccccc2Oc2ccccc21	11.8
Cc1nc(N2CCOCC2)[nH]c(=O)c1C	20.0
Oc1ccc(/C=N/Nc2cc(N3CCOCC3)nc(N3CCOCC3)n2)cc1O	11.6
CC(C)N1CCN(Cc2nc3ccccc3s2)CC1CCO (stereo not given)	11.8
O=C(Nc1ccc(F)cc1F)c1ccc(-n2cccn2)c([N+](=O)[O-])c1	-8.4
CC1CN(c2ncnc3c2c(-c2ccccc2)cn3-c2ccc(F)cc2)CC(C)O1 (stereo not given)	7.6
O=C(O)CC(NCc1ccco1)C(=O)Nc1cccc(O)c1 (stereo not given)	17.6

(further entries)
SMILES	Biofilm kill mix
COc1cc(C2Nc3ccccc3C(=O)N2NS(C)(=O)=O)ccc1O (stereo not given)	23.3
CC(C)(C)CC(=O)Nc1nnc(C(F)(F)F)s1	15.2
O=C(CSC(=S)N1CCOCC1)Nc1nc(=O)c2ccccc2s1	14.7
Cc1ccc(NNC(=O)c2ccno2)cc1Cl	16.5
O=C(NCc1ccco1)c1c(F)cccc1Cl	13.0
CCCC(NCC(O)COc1ccc(-c2ccccc2)cc1)c1ccccc1 (stereo not given)	17.0
COC(=O)C1=C(C(=O)OC)C2(OC1c1ccc(Br)cc1)C(=O)c1ccccc1C2=O (stereo not given)	7.4
CCCCc1ccc(NC(=S)NCCc2ccc(F)cc2)cc1	19.1
OCC1(O)OC[C@@H](O)[C@H]1O (stereo not given in full)	-0.7
CN(C)CCCN(C(=O)c1ccc(S(=O)(=O)N(C)C)cc1)c1nc2ccc(F)cc2s1	7.1
NS(=O)(=O)c1cccc(NS(=O)(=O)c2cccc(C(F)(F)F)c2)c1	10.8
CC1(C)CC(NCc2ccccc2)CCO1 (stereo not given)	12.8
Cc1ccc(C(=O)NC(=S)Nc2nc(-c3cccc([N+](=O)[O-])c3)cs2)c(Cl)c1	-18.4
NNC(=O)c1ccc(COc2ccccc2)cc1	23.9
CCCCN(CCCC)CC(O)COc1ccc(Br)cc1 (stereo not given)	9.2
Cc1cc(C)n(CCc2nc(-c3ccc(C(C)(C)C)cc3)cs2)n1	16.1
Cc1cccc(OC(=O)CCN2C(=O)C3C4C=CC(C5CC45)C3C2=O)c1C (stereo not given)	12.4
CCOc1cc(C(=O)NC2=NCCS2)cc(OCC)c1OCC	11.0
Cc1ccc(C(=O)CSc2nnc(-c3ccncc3)n2C)cc1	11.4
CCC(CO)NCC#Cc1ccccc1 (stereo not given)	13.5
CN(c1ccc2nc3ccccc3c(=O)n2n1)C1CCCCC1	16.6
COC(=O)c1ccc(CSc2nnc(-c3ccccc3)n2C)o1	18.4
COc1ccccc1N1CCN(c2cnccn2)CC1	11.2
Cc1ccc(NC(=S)N(CCN(C)C)C(C)c2ccco2)cc1Cl (stereo not given)	19.9
CCOC(=O)C1CCN(c2c(NCc3ccc(C(=O)N(C)Cc4ccccc4)cc3)c(=O)c2=O)CC1	10.4
O=Cc1ccc(OC(=O)c2cc(Cl)nc3ccccc23)cc1	8.6
CCSc1nnc(NC(=O)[C@@H](NC(=O)c2ccccc2F)C(C)C)s1	9.1
CCOc1ccc(CCNC(=O)CSc2nnnn2C)cc1OCC	8.9
CCCCNC(=O)c1ccc(CS(=O)(=O)Cc2ccccc2F)o1	6.8
CCCC(CCC)C(=O)Nc1ccc2c(c1)N(C(=O)CCN1CCN(C)CC1)c1ccccc1CC2	23.0
CCCCc1c(C)[nH]c(=S)[nH]c1=O	20.2
CCOC(=O)N1CCC(=NNC(=O)c2cc3ccccc3cc2O)CC1	25.3
N#Cc1cc(-c2ccccc2)nc(Oc2ccccc2)n1	11.9
CC(=O)Nc1ccc(Nc2ccc3c4c(cc(=O)n3C)-c3ccccc3C(=O)c24)cc1	8.4
Cc1ccc([N+](=O)[O-])cc1S(=O)(=O)NCCc1cn2ccccc2n1	16.5
Cc1ccc(Cl)cc1NC(=O)c1ccccc1OCC(=O)Nc1ccc(Cl)cc1	8.5
Cc1ccc(-c2cc(=O)c3ccc(Cl)cc3[nH]2)cc1	21.0
CCCC(=O)NC(C)C(c1cccs1)N1CCN(c2ccccc2)CC1 (stereo not given)	16.7
NC(N)=NCC(O)CN(c1ccccc1)c1ccccc1 (stereo not given)	6.0
C/C=C(\C)C(=O)Nc1cccc(C2=NOC3(C2)C[C@@H](C(N)=O)N(C(=O)/C(C)=C/C)C3)c1 (stereo not given in full)	8.7
Cc1ccc(-n2c(C)cc(C(=O)CSc3nnc4ccccn34)c2C)cc1	12.4
CCN(CC)S(=O)(=O)c1ccc(NC(=O)c2cccnc2Cl)c(NC(=O)c2cccnc2Cl)c1	8.3
COc1ccccc1CN1CCNC(=O)C1CC(=O)N(C)Cc1cnccn1 (stereo not given)	31.2
O=C(N/N=C/c1ccccc1O)c1cccc(C(F)(F)F)c1	18.9
CCn1ncc(Br)c1C(=O)Nc1ccc(F)c([N+](=O)[O-])c1	13.3
COC(=O)CCCCCCCCCCN1CCCCC1	12.3
O=c1[nH]c2ccccc2c2oc(CCl)nc12	20.7
Cc1ccc(Cl)cc1NC(=S)N(CCCN1CCN(C)CC1)Cc1ccco1	11.7
O=C1c2ccccc2C2=Nc3ccccc3SC(c3cccc(F)c3)C12 (stereo not given)	10.3
O=C(O)CCC(=O)Nc1ccc(Br)cc1C(=O)c1ccccc1Cl	18.0
C=CCN1CCc2c(cc(O)c(O)c2Cl)C(c2ccccc2)C1 (stereo not given)	17.6
COc1ccc(Cl)cc1NC(=O)CNc1ccc(F)cc1C	13.9
Cc1nn(-c2ccccc2[N+](=O)[O-])c(=O)c2ccccc12	12.4
COc1ccc(-c2nc3ccccc3n2OC(C)C(=O)O)cc1 (stereo not given)	15.7
C#CCn1c(=NC(=O)c2cc(Cl)sc2Cl)sc2cc(S(N)(=O)=O)ccc21	6.2
COc1ccc(NC(=O)C(=O)NCCN2CCN(C(=O)c3cccs3)CC2)cc1	10.8
CC(C)c1ccc(/C=C2\SC(N3CCCC3)=NC2=O)cc1	18.4
CC/C(Cc1ccccc1)=N/NC(=O)CCn1nnc2ccccc21	16.4
N#Cc1cnn2c(-c3ccc(Cl)cc3Cl)ccnc12	12.4
O=Cc1ccc(OCC(=O)Nc2ccccc2C(F)(F)F)cc1	24.4

(list continues)
SMILES	Biofilm kill mix
S=c1[nH]nc(-c2cccnc2)n1C1CCCCC1	17.7
COc1ccc(C2N(Cc3ccccc3)CC(=O)N2/N=C(\C)c2ccccc2)cc1 (stereo not given)	8.8
COc1ccccc1NS(=O)(=O)c1ccc2oc(=S)[nH]c2c1	7.7
COc1ccc(-c2nc3ccccn3c2/N=C/c2ccc(OC)c(OC)c2)cc1O	4.8
COc1ccc(CN2CCN(CCCc3ccccc3)CC2)c(OC)c1	8.3
c1cncc(-c2nc3ccccc3s2)c1	16.6
NC(=O)CSc1nnnn1-c1cccc(Cl)c1	10.7

Bioassay records as filed in PubChem BioAssay.

Not all compounds are listed. The share of hits here may be higher or lower than overall.
